Ecoli growth = blocks Escherichia coli growth. OD600, 23 h; active compounds read low. OD600 absorbance (concentration not given with the values). 330,000 compounds, 0.21% hits;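 active = OD600 absorbance below the run mean of sample wells minus 3.6 SD, in any replicate, cut at about 0.56 in these data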;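 note: stock transfer was 300 nL into about 60 µL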
FGF22 binding = FGF22 (human) thermal shift binding; recombinant FGF22 thermal shift, SYPRO orange fluorescence; percent of sucrose octasulfate shift, DMSO zero; AID 651658; 340,000 compounds, 1.5% hits; calls only at 9.99 µM;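 active = melting point raised past a set limit in the mean and every replicate; inconclusive = no clear call; three in four hits are not shown here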
Target sequence (Q9HCT0 whole entry, looked up): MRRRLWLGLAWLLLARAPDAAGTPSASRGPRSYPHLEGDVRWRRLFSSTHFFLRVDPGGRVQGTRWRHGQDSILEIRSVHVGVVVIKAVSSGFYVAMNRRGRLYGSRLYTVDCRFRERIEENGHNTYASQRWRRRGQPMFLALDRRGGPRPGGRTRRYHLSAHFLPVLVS
Vif TR-FRET = HIV-1 Vif–A3G interaction blockers – biochemical, TR-FRET, GST-Vif 1-94, biotin-A3G peptide, dose response retest, primary screen (AID 1117319). TR-FRET GST-Vif / biotin-A3G peptide binding; higher % means a stronger effect; test concentration not given here; strong numbers were not always called active. inhibition, %; hits with a dose series show IC50 in µM. 260,000 compounds, 0.57% hits;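 active = above the screen mean plus three standard deviations and confirmed in dose response; inconclusive = results disagree or hit not tested in dose response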;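 note: Vif residues 1-94 fused to GST binding biotinylated APOBEC3G peptide 110-148; 0% = full assay without inhibitor and 100% = GST in place of GST-Vif; retest series ran down from 100 µM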
HNF4A DNA FP = change in binding of human HNF4 alpha to DNA | 360,000 compounds, 0.3% hits | P41235 | AID 1224865 | activity change, % at 10 µM | HNF4a-FITC DNA binding, fluorescence polarization, 1 h; in the data active = activity change above about 30%, passing the limit was not always enough;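 note: controls were the assay level and a saturating level of protein; the project sought stronger binding though the title names inhibitors; some compounds called inactive have numbers as strong as hits; positive values seem to mean higher polarization but the record does not say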
MLL AF4-AF9 inh = MLL-AF4/AF9 protein interaction inhibition | AlphaScreen, biotin-AF4 peptide binding to FLAG-AF9 | inhibition, % at 10 µM | AID 651704 | 350,000 compounds, 0.47% hits;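 active = every replicate reaching a set inhibition limit, whatever the replicate mean, cut at about 25% in these data; inconclusive = mean inhibition reaches that limit but some replicates miss it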;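 note: 0% = plate neutral control median and 100% = total signal loss; the record names both 10 and 1 µM as test concentration; the first replicate is given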
Target sequence (P42568 whole entry, looked up): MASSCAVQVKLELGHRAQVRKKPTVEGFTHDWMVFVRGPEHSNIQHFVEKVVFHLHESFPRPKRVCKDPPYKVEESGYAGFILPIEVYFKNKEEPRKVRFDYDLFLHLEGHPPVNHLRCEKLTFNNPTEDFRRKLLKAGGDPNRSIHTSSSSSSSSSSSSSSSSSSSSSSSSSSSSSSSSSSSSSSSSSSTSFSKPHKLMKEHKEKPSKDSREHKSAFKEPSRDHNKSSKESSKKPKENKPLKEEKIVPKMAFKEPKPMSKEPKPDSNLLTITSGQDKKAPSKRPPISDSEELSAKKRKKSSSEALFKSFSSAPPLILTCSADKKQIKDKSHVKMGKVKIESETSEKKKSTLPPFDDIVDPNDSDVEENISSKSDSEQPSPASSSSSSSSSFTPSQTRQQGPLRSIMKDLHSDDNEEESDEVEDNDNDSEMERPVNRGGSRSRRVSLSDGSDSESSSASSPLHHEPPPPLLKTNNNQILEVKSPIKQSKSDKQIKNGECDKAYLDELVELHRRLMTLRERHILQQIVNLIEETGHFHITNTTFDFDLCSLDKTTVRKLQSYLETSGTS
UCH37 DUB inh = human UCH37 deubiquitinating enzyme inhibition; Q9Y5K5; purified proteasome/UCH37, Ub-AMC cleavage fluorescence; inhibition, % (no concentration beside the values); 330,000 compounds, 0.33% hits; AID 588478;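 active = mean of two replicates above 20%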;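 note: 0% = compound-free wells with enzyme and 100% = wells lacking proteasome; stock transfer was 100 nL into about 20 µL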
Target sequence (Q9Y5K5 whole entry, looked up): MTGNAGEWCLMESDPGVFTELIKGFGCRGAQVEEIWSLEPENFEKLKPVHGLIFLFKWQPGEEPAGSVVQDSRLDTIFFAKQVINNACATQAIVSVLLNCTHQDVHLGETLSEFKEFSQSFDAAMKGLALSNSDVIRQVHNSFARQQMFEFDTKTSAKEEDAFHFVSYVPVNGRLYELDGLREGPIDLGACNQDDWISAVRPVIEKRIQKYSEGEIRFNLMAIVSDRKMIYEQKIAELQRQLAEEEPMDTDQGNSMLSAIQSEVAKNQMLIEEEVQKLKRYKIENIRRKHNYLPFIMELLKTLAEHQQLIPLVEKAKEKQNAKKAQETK
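assay system = human UCH37 enzyme supplied as purified proteasome complex | amount = proteasome at 0.15 nM in the dispensed enzyme solution | schedule = 30 min compound-proteasome preincubation then 25 min substrate reaction, room temperature | measured by = fluorescence, ex 355 nm, em 460 nm | benchmarks = no-proteasome wells (full inhibition) and compound-free wells (no inhibition)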
RanGTP-Imp inh = disruptors of Ran-importin-beta complex formation – biochemical, FRET, CFP-Ran, YFP-importin-beta, homogeneous, primary screen | cell-free CFP-Ran/YFP-importin-beta FRET ratio | inhibition, % (concentration not given with the values) | 300,000 compounds, 1.1% hits | AID 2216;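 active = most replicates above 15%; inconclusive = exactly half above 15%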;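 note: 0% = DMSO wells and 100% = Ran loaded with GDP instead of GTP; wells of about 40 µL received 100 nL stock; the first replicate is given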
An asterisk follows results filed as active; i = inactive; ? = inconclusive; nt = no result given. A portion of the library. The share of hits here may be higher or lower than overall.

Every second line gives: UCH37 DUB inh	MLL AF4-AF9 inh	FGF22 binding	HNF4A DNA FP	Ecoli growth	Vif TR-FRET	RanGTP-Imp inh
CCOC(=O)C(=O)NCC(c1ccco1)S(=O)(=O)c1cccs1 (centres undefined)
    6.2	-0.8	nt	-2.1	0.695	3.6%	-3.5
CCOC(=O)C1=C(CS(=O)(=O)c2ccc(F)cc2)NC(=O)NC1c1cc(OC)c(O)c(OC)c1 (centres undefined)
    6.2	0.7	i	-1.1	0.679	nt	2.9
Cc1noc(C)c1COc1ccc(C(=O)N2CCN(S(=O)(=O)c3ccc(Cl)cc3)CC2)cc1
    -0.1	1.5	i	-5.0	0.731	-1.6%	9.6
COc1ccc(C(=O)Nc2ccc(CN3CCOCC3)cc2)cc1Br
    3.4	3.1	i	-5.7	0.672	nt	-1.5
COc1ccc(NC2CCCN(C(=O)CCc3ccccc3F)C2)cc1 (centres undefined)
    5.7	7.9	i	-0.9	0.682	nt	-5.6
N#Cc1ncc(Cl)c2ccccc12
    -5.4	0.2	i	2.2	0.614	nt	2.4
Cc1ccc(-c2c(C(=O)N/N=C/c3ccncc3)nnn2-c2nonc2N)cc1
    nt	1.4	i	3.0	nt	-1.1%	1.1
Clc1ccc(CSc2nnc(CNc3cccc(Cl)c3)o2)cc1
    1.2	nt	nt	4.2	0.674	-0.4%	8.9
Cc1cccc(OCC(=O)Nc2ccc3c(c2)OCO3)c1C
    -0.1	nt	nt	-4.0	0.721	14.4%	-6.5
Cc1cccc(-c2oc3ccccc3c2C#CCCO)c1
    nt	9.1	i	3.6	nt	nt	-3.7
CN(C)C(=O)N1CCC(C(=O)N2CCCC(C(=O)c3cccc4ccccc34)C2)CC1 (centres undefined)
    1.3	-1.6	i	0.2	0.706	10.9%	4.7
Cc1ccc(CC2CC(=O)N(C(Cc3ccccc3)C(=O)O)C2=O)cc1 (centres undefined)
    1.5	-0.8	nt	1.5	0.684	-6.4%	3.0
O=[N+]([O-])c1ccc(C[n+]2ccc(Cc3ccccc3)cc2)cc1
    2.5	2.2	i	1.1	0.661	9.1%	-2.2
CC(=O)c1ccc(OCCCC(=O)NC2CCCCC2C)cc1 (centres undefined)
    -0.6	-4.1	i	-1.3	0.684	nt	6.2
CC1CCN(c2ncnc3ccccc23)CC1
    3.5	nt	nt	-6.1	0.685	-1.7%	0.0
CC(Oc1ccccc1Cl)c1nnc(N)s1 (centres undefined)
    1.5	nt	nt	-7.7	0.669	2.2%	1.5
COC(=O)c1cc(NC(=O)c2ccoc2C)cc(C(=O)OC)c1
    3.4	nt	nt	0.4	0.704	-4.0%	-1.4
CC(=O)N1CCN(c2ncnc3sc(-c4ccccc4)cc23)CC1
    -38.2	1.2	nt	-0.8	0.702	-4.5%	6.6
Cn1cccc1C(=O)NC(=O)COC(=O)c1ccc(S(C)(=O)=O)cc1
    nt	-0.3	i	-3.4	nt	-3.7%	nt
CCCCOC(=O)c1ccc(OC(=O)c2cccnc2)cc1
    0.2	nt	nt	-0.3	0.686	-3.6%	4.3
COc1ccc2[nH]cc(C(=O)CN3CCCC(C)(C)C3)c2c1
    4.9	3.7	i	-57.5	0.663	-1.2%	-4.4
CCOC(=O)c1cc(-c2ccc(N3C(c4ccsc4)=Cc4ccccc4C3CC(C)=O)cc2)cc([N+](=O)[O-])c1 (centres undefined)
    nt	1.2	i	-1.5	nt	nt	nt
O=C1/C(=C/c2ccccc2)CSc2sccc21
    -0.8	nt	nt	0.1	0.761	?	-1.4
CCCCCCOC(=O)Nc1ccc(S(=O)(=O)Nc2cccc([N+](=O)[O-])c2)cc1
    2.7	-0.2	i	-3.9	0.72	2.3%	-2.2
O=C(C[n+]1cc(Br)cc2ccccc21)c1ccc(Br)cc1
    1.5	7.8	i	-1.3	0.624	-31.0%	-4.1
COc1ccc(-c2nc3cccc(C)n3c2NCc2ccco2)cc1OC
    -363.5	nt	nt	-0.9	0.768	?	4.9
CC(=O)c1ccc(S(=O)(=O)Oc2ccc(-c3ccc(C(=O)O)cc3)cc2)cc1
    -0.9	0.8	i	1.8	0.684	nt	-0.8
CCCn1c(N)c(C(=O)CSc2nnc(-c3ccco3)n2Cc2ccccc2)c(=O)[nH]c1=O
    0.3	nt	nt	-1.6	0.707	-1.5%	-0.8
CCOc1ccc(CN(C)C(=O)c2cccnc2OCC)cc1OC
    1.6	-1.4	i	3.8	0.702	-6.7%	?
COCc1nnc(SCC(=O)NCc2ccccc2)n1-c1ccccc1
    2.8	4.1	i	1.4	0.732	-0.2%	4.8
CCOC(=O)C1=C(C)NC(=S)NC1c1ccc(OC(=O)c2ccco2)cc1 (centres undefined)
    4.7	nt	nt	0.6	0.679	nt	0.8
CCc1ccc(CN2CCC(Oc3ccc(C(=O)NCc4ccccn4)cc3)CC2)o1
    5.7	-8.4	i	4.0	0.698	nt	-0.4
O=C(Cc1ccccc1)Nc1ccc(C(=O)Nc2ccc(O)cc2)cc1
    0.8	-0.8	i	-2.6	0.702	0.2%	0.6
CCOC(=O)/C(C#N)=C1\C(=O)N(Cc2ccccc2)c2ccccc21
    5.3	0.9	i	-2.1	0.696	-3.0%	0.8
Nc1cc(Cl)ccc1C(=O)OCC(=O)NCc1cccs1
    -87.3	-3.5	i	-4.2	0.703	nt	nt
COc1ccc(NC(=O)CNC(=O)c2ccc([N+](=O)[O-])cc2)cc1
    2.3	6.9	i	-21.6	0.691	0.1%	0.9
O=C(CSc1nc(-c2ccccc2F)nc2nc[nH]c12)Nc1c(Cl)cc(Cl)cc1Cl
    1.4	-1.5	i	nt	0.698	-89.9%	4.4
COC(=O)c1sc2ccccc2c1NC(=O)c1cccs1
    -5.9	1.5	i	-2.2	0.705	-10.4%	-0.6
CCN(CC)S(=O)(=O)c1ccc(C(=O)N2CCN(C3=NS(=O)(=O)c4ccccc43)CC2)cc1
    0.1	-1.0	i	2.4	0.695	2.2%	-2.6
Cc1[nH]c2c(C)cccc2c1CN1CCC(CO)(Cc2ccccc2)CC1
    1.4	0.6	i	1.3	0.703	nt	-2.1
COc1ccc(Nc2nc(C)cc(C)c2C#N)cc1OC
    -0.8	-3.3	i	2.9	0.708	-8.0%	-1.4
CN(CC(=O)Nc1ccc(F)cc1Cl)Cc1cccs1
    1.7	1.2	i	0.0	0.694	nt	?
COc1ccc(CCN2CCCC(CN(C)Cc3cc(Cl)c(O)c(OC)c3)C2)cc1 (centres undefined)
    4.6	-2.1	i	1.2	0.667	nt	0.8
N#Cc1ccc(C(=O)NNC(=O)c2ccncc2)cc1
    2.3	-2.3	i	-1.5	0.672	nt	-2.8
COc1cccc(-c2nnc3sc(-c4ccccc4)nn23)c1
    0.9	nt	nt	3.5	0.737	-25.4%	-1.7
Cc1ccc(-c2c(C(=O)N/N=C/C3CCCCC3)nnn2-c2nonc2N)cc1
    nt	0.0	i	2.9	nt	nt	-2.2
CC(=O)Nc1ccc(OCC(O)Cn2c3ccccc3c3ccccc32)c(C)c1 (centres undefined)
    4.5	nt	nt	-2.6	0.683	1.0%	1.3
CC(Sc1nnc(C(F)(F)F)n1C)C(=O)Nc1ccc(N2CCOCC2)cc1 (centres undefined)
    -1.8	-2.4	i	5.6	0.718	nt	nt
O=C(NC1CC1)c1ccc(NC(=O)C2CCC2)cc1
    nt	-3.8	i	0.1	nt	nt	nt
Cc1cc(NC(=O)CSc2nccn2-c2ccc([N+](=O)[O-])cc2)no1
    -0.5	-4.0	i	35.4*	0.726	nt	-2.4

Next part.
Every second line gives: UCH37 DUB inh	MLL AF4-AF9 inh	FGF22 binding	HNF4A DNA FP	Ecoli growth	Vif TR-FRET	RanGTP-Imp inh
O=C(Oc1cccc(C(=O)N2CCOCC2)c1)c1ccc(Br)cc1
    2.7	nt	nt	1.6	0.726	4.0%	3.4
Cc1ccc(C(=O)CSc2nnc(-c3snnc3C)n2C2CC2)cc1
    -0.7	0.5	i	-2.5	0.679	20.3%	5.2
COc1ccc(C(=O)OCC(=O)Nc2sccc2C(N)=O)cc1OC
    -1.8	-2.3	i	11.5	0.745	-56.3%	4.6
COc1ccc(CN2CCNC(=O)C2CC(=O)NC2CCCCCCC2)cc1OC (centres undefined)
    6.5	6.5	i	5.9	0.676	nt	1.3
Cc1ncc(NS(=O)(=O)c2ccc(N)cc2)nc1C
    5.1	3.7	i	-2.2	0.658	2.2%	nt
Cc1ccc(NC(=O)COC(=O)c2cc(=O)c3ccccc3o2)c(Br)c1
    0.5	-2.2	i	-1.6	0.656	nt	nt
CCC(C(=O)NCCCN1CCN(CC)CC1)n1nc(C)n2c(cc3occc32)c1=O (centres undefined)
    -0.7	3.2	i	-3.5	0.636	-4.8%	-0.6
O=C(COC(=O)c1cc(=O)[nH]c2ccccc12)c1ccc(Br)cc1
    -47.9	-38.5	i	-0.2	0.691	-3.3%	6.0
CCn1c(=O)n(CC)c2cc(S(=O)(=O)Nc3ccccc3C)c(C)cc21
    2.9	nt	nt	-4.8	0.683	1.1%	?
CCOc1cc(/C=C/C(=O)O)ccc1OCCOc1ccc(F)cc1
    3.1	1.5	i	2.6	0.663	0.6%	-4.6

2 entries drawn at random from those above, as already listed:
Every second line gives: UCH37 DUB inh	MLL AF4-AF9 inh	FGF22 binding	HNF4A DNA FP	Ecoli growth	Vif TR-FRET	RanGTP-Imp inh
COc1ccc(CN2CCNC(=O)C2CC(=O)NC2CCCCCCC2)cc1OC (centres undefined)
    6.5	6.5	i	5.9	0.676	nt	1.3
Cc1ncc(NS(=O)(=O)c2ccc(N)cc2)nc1C
    5.1	3.7	i	-2.2	0.658	2.2%	nt

Next entries
Every second line gives: UCH37 DUB inh	MLL AF4-AF9 inh	FGF22 binding	HNF4A DNA FP	Ecoli growth	Vif TR-FRET	RanGTP-Imp inh
Cc1nnc(SCC(=O)Nc2cccc(Cl)c2)n1CC1CCCO1 (centres undefined)
    5.2	1.3	i	3.9	0.714	0.3%	0.1
COc1cccc(NC(=O)NC2(C(=O)N3CCN(C)CC3)CCCCC2)c1
    2.4	-1.8	i	3.8	0.667	nt	-2.2
COC(=O)c1cn(C(=O)c2cccc(Br)c2)c2ccccc12
    1.4	-4.2	i	-1.8	0.678	-5.9%	4.8
CCOC(=O)C12CNC(=O)C(C(=O)OCC)(CNC1=O)C2
    -4.9	nt	nt	1.1	0.729	4.9%	?
CCOC(=O)C(=NCCCN(C)C)NNc1cc(C(F)(F)F)ccc1Cl
    3.1	8.3	i	1.6	0.684	7.7%	8.2
CC(C)(C)OC(=O)N[C@H](Cc1ccccc1)C(=O)N1CCC(C(=O)O)CC1
    -3.1	nt	nt	2.0	nt	4.5%	0.5
COc1ccc(Cl)cc1-c1nc(SCC(=O)NC2CC2)n[nH]1
    -2.3	-0.5	i	-0.4	0.669	32.0%	1.5
Cc1cccc(C)c1NS(=O)(=O)c1ccc2c(c1)NC(=O)CO2
    0.9	0.7	i	1.2	0.689	22.5%	1.2
COc1ccc(OCC(=O)OCC(=O)N2C(C)CCCC2C)cc1 (centres undefined)
    -1.6	-1.3	i	-3.4	0.658	-3.5%	nt
COc1ccc(C(C)(O)c2nc(-c3cncnc3)cs2)cc1 (centres undefined)
    nt	2.0	i	-3.8	nt	nt	nt
COc1ccc(C(=O)N/N=C(\C)c2ccccn2)cc1OC
    nt	-1.4	i	-6.8	nt	nt	0.9
CSc1ccccc1NC(=O)Cn1c(-c2cscn2)nc2ccccc21
    0.2	nt	nt	-1.5	0.717	-15.5%	-2.7
CCN(c1c(C)n(C)n(-c2ccccc2)c1=O)S(C)(=O)=O
    3.1	nt	nt	-1.9	0.712	-0.7%	0.8
Nc1c(N(Cc2ccco2)C(=O)c2ccc(Br)cc2)c(=O)[nH]c(=O)n1Cc1ccccc1
    -0.6	-1.2	i	-2.2	0.664	12.7%	nt

Source: PubChem (several laboratories)
